Bioassay records: PubChem BioAssay, ICCB-Longwood Screening Facility, Harvard Medical School
Mtb MbtI inh: inhibitors of Mycobacterium tuberculosis siderophore enzyme MbtI. P9WFX0. purified MbtI enzyme, fluorescence intensity read-out. inhibition, %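 (about 17 µg/mL by stock and volumes)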. 100,000 compounds, 0.89% hits;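 active = above 50% in both replicates, above 80% if mildly self-fluorescent; inactive = the rest, strongly fluorescent compounds included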;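 note: 0% = mean of negative and 100% = mean of positive controls; one replicate is shown; some compounds called inactive have numbers as strong as hits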
Target sequence (P9WFX0 whole entry, looked up): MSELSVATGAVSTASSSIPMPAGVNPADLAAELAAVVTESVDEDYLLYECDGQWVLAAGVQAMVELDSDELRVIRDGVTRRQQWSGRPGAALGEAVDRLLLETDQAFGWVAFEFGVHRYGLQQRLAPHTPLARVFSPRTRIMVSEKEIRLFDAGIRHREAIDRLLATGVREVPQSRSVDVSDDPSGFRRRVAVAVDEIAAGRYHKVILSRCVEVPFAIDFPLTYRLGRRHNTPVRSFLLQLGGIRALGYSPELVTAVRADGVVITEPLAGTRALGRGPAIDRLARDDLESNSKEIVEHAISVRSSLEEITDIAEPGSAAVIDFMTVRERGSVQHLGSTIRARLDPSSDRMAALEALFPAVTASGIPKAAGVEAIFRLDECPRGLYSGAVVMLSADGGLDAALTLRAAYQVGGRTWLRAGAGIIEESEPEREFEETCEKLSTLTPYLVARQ
Polio RdRp inh: poliovirus RNA polymerase inhibition | P03300 | poliovirus polymerase elongation, fluorescence polarization; stronger effect = lower value | % elongation, % (compound at 16.7 µg/mL) | 150,000 compounds, 0.66% hits | AID 588519; in the data active = % elongation below about 90%; note: some results filed as inactive read as strong as hits
Mtb MenB inh: Mtb MenB enzyme inhibition; 100,000 compounds, 0.43% hits; MenB enzyme assay, absorbance read-out; some hits fall short of the stated cut; inhibition, %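 (about 12 µg/mL by stock and volumes)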; P9WNP5;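 active = mean of two replicates above 30%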;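 note: 0% = no compound and 100% = wells with inactive enzyme; the first replicate is given; strong numbers were not always called active; inactives centre near -10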
Target sequence (P9WNP5 whole entry, looked up): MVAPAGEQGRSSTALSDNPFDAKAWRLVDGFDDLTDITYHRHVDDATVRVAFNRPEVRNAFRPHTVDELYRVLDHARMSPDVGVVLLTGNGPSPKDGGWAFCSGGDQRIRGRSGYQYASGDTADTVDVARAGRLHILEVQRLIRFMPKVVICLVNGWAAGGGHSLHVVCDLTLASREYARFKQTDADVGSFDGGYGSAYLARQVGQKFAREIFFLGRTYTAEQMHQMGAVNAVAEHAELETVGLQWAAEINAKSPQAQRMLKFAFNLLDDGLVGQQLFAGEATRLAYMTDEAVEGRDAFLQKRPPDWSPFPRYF
Polio RdRp inh intensity: also measured in Polio RdRp inh; calls as there; % elongation; measured here: total intensity read-out; formula for this scale not given here;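 total fluorescence in place of polarization; lower means less elongation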
Active calls of the source: *; i = inactive; / = not tested or not shown.

SMILES	Mtb MbtI inh	Polio RdRp inh	Polio RdRp inh intensity	Mtb MenB inh
CCCNc1nc2ccccc2n2cnnc12	12	99	120	-3
CCOC(=O)c1c(C)oc(NC(=O)CSc2nc(Cc3ccccc3)c(C)[nH]2)c1C(=O)OCC	-10	101	108	-17
CCNC(=O)C12CCC(C)(C(=O)O1)C2(C)C (configuration not stated)	-7	101	104	-55
CCn1c(=S)[nH]c2ccc(Br)cc2c1=O	-19	99	103	-56
CN1C(=O)/C(=C/c2ccc(C(=O)OCCN3CCOCC3)cc2)SC1=S	3	/	/	-17
N#C/C(=C\Nc1ccccc1O)c1nc2ccccc2o1	-20	103	103	-76
CNC(=O)NC(=O)C(C)Oc1ccc(NC(=O)c2ccccc2OC)cc1 (configuration not stated)	-2	98	107	-22
CN1CCN(NC(=O)c2ccccc2Nc2ccc(SC(F)F)cc2)CC1	17	104	108	-22
O=C(COc1ccc(OCc2ccccc2)cc1)NC1CN2CCC1CC2 (configuration not stated)	6	101	103	-5
CCC(=O)N1N=C(c2ccco2)CC1c1cn(-c2ccccc2)nc1-c1ccc(OC)cc1 (configuration not stated)	10	/	/	-33
CCC(=O)NC(Nc1cc(C)ccn1)(C(F)(F)F)C(F)(F)F	8	103	99	-17
O=C(COC(=O)/C=C\c1ccco1)Nc1ccc(OC(F)(F)F)cc1	/	102	101	-7
CCCN(CCC)S(=O)(=O)c1ccc(CC)cc1	-13	103	102	-16
Cc1nc2c(cc1C(=O)N/N=C/c1c[nH]c3ccccc13)c(=O)n(C)c(=O)n2C	-4	102	102	4
CCc1c(O)nc(SCc2ccccc2)n(C2CCCCC2)c1=O	-5	101	103	-25
COc1ccc(OCCC(=O)Nc2ccc3[nH]c(=O)[nH]c3c2)cc1	19	120	123	-18
FC(F)(F)c1cccc(C=NCc2ccc(-c3cccs3)s2)c1	2	104	112	-2
CC(C)(SC1CC(=O)N(c2ccccc2)C1=O)C(N)C(=O)O (configuration not stated)	1	99	98	-55
N#CCn1c(CSc2nc3ccccc3c(=O)n2CCC2=CCCCC2)nc2ccccc2c1=O	-3	107	115	-22
CCOc1ccc(CCNC(=O)Cn2ncn3nc(-c4cccs4)cc3c2=O)cc1OCC	10	102	108	-9
Cc1nccn1CC(=O)N/N=C/c1cccn1C	21	103	102	-6
Cc1cc(C)cc(NC(=O)Cn2c(=O)c3cccn3c3ccccc32)c1	5	102	103	-32
O=C1C[C@H]2[C@H](CO)[C@@H](OC(=O)c3ccc(-c4ccccc4)cc3)C[C@H]2O1	-17	104	107	-18
CC(=O)Nc1ccc(S(=O)(=O)N(C)CC(=O)OCc2c(C)noc2C)cc1	8	101	100	11
NS(=O)(=O)c1ccc(N2CCCC2c2ccc3c(c2)OCCCO3)nc1 (configuration not stated)	-24	104	112	-22

As a short view, some entries already given.
SMILES	Mtb MbtI inh	Polio RdRp inh	Polio RdRp inh intensity	Mtb MenB inh
CCCNc1nc2ccccc2n2cnnc12	12	99	120	-3
CCOC(=O)c1c(C)oc(NC(=O)CSc2nc(Cc3ccccc3)c(C)[nH]2)c1C(=O)OCC	-10	101	108	-17
CCNC(=O)C12CCC(C)(C(=O)O1)C2(C)C (configuration not stated)	-7	101	104	-55
CCn1c(=S)[nH]c2ccc(Br)cc2c1=O	-19	99	103	-56
CN1C(=O)/C(=C/c2ccc(C(=O)OCCN3CCOCC3)cc2)SC1=S	3	/	/	-17

Additional results:
SMILES	Mtb MbtI inh	Polio RdRp inh	Polio RdRp inh intensity	Mtb MenB inh
C[N+](C)(C)CC(O)CC(=O)O (configuration not stated)	-14	102	99	-1
O=C(O)c1cccnc1Sc1cccc(C(F)(F)F)c1	-6	105	110	-9
CCOC(=O)c1c(C)[nH]c(C)c1S(=O)(=O)NCCCc1ccco1	-5	102	101	-21
CCCc1cc(=O)[nH]c(SCC(=O)N(CC(C)C)C2CCS(=O)(=O)C2)n1 (configuration not stated)	0	104	105	-24
CCSc1nc2ccccc2n1C(CC(=O)O)C(=O)O (configuration not stated)	-1	99	99	-8
Cn1nc2n(c1=O)-c1ccccc1SC2	-8	101	104	-5
COc1cc(NC(=O)c2ccco2)c(OC)cc1NC(=O)CCC(=O)NC1CCN(Cc2ccccc2)CC1	-16	104	100	-45
CCN(CC)S(=O)(=O)c1ccc2c(c1)nc(-c1ccccc1)n2C	-103	100	113	2
CCc1cc(-c2nc(N)ncc2-c2ccc(OC)cc2)c(O)cc1OC	-6	100	102	-30
Cc1cccc(N=Nc2c(C)[nH]n(C(N)=S)c2=O)c1	-11	99	103	-41
CN1CCN(NC(=O)COc2ccc(C#N)cc2)CC1	-12	106	106	-15
CCCn1nc(C(=O)Nc2nc3ccccc3[nH]2)c2ccccc2c1=O	13	98	106	-17
Cc1ccc(S(=O)(=O)/N=C(\N)Nc2nc(C)c3ccccc3n2)cc1	1	99	101	-13
Cc1ccc(Oc2ncccc2C(=O)NCC(=O)O)cc1	-5	107	110	-7
CC(C)c1ccc(-c2noc(COC(=O)c3c[nH]c4ccccc34)n2)cc1	-12	104	102	-9
COc1cc(C(C#N)N2CCCCC2)ccc1O (configuration not stated)	/	102	114	-16
O=C(Cn1cc(I)c(=O)[nH]c1=O)N1CCOCC1	-2	100	102	3
Cc1ccc2nc3c(cc(C(=O)NCCN4CCOCC4)c(=N)n3CC3CCCO3)c(=O)n2c1 (configuration not stated)	i	102	90	-40
CC(C)c1ccc(NNC(=O)C2CCC2)cc1	-4	100	93	12
CC(C)(C)OC(=O)N1CCC[C@H]1C(=O)N1CCN(c2ccccc2)CC1	-4	97	96	-8
Cc1nnc(SCc2nnc(-c3ccccc3)o2)o1	-14	105	102	-63
CCOc1cc2c(cc1OCC)-n1cccc1C(C1CCCCC1)NC2 (configuration not stated)	/	104	106	-30
Cc1ccc(NC(=O)C2=C(N)C(C(=O)Nc3c(F)c(F)c(F)c(F)c3F)SC2=NCc2ccco2)c(C)c1 (configuration not stated)	-2	105	106	-31
CN1CCCC(CC2c3ccccc3Sc3ccccc32)C1 (configuration not stated)	2	99	100	0
CCOC(=O)c1ccc(NC(=O)CN2CCN(C(=O)c3ccco3)CC2)cc1	-2	104	100	-19

One compound at a time, from the list above. Order of values: Mtb MbtI inh | Polio RdRp inh | Polio RdRp inh intensity | Mtb MenB inh
CN1CCCC(CC2c3ccccc3Sc3ccccc32)C1 (configuration not stated) in the list: 2 | 99 | 100 | 0
Cc1ccc(Oc2ncccc2C(=O)NCC(=O)O)cc1 in the list: -5 | 107 | 110 | -7
C[N+](C)(C)CC(O)CC(=O)O (configuration not stated) in the list: -14 | 102 | 99 | -1
CC(C)c1ccc(-c2noc(COC(=O)c3c[nH]c4ccccc34)n2)cc1 in the list: -12 | 104 | 102 | -9

Gathered by group, those above with a thiophene ring, fused or not (2)
SMILES	Mtb MbtI inh	Polio RdRp inh	Polio RdRp inh intensity	Mtb MenB inh
FC(F)(F)c1cccc(C=NCc2ccc(-c3cccs3)s2)c1	2	104	112	-2
CCOc1ccc(CCNC(=O)Cn2ncn3nc(-c4cccs4)cc3c2=O)cc1OCC	10	102	108	-9

The listing continues.
SMILES	Mtb MbtI inh	Polio RdRp inh	Polio RdRp inh intensity	Mtb MenB inh
Cc1cccc(Nc2ccc(NCc3ccccc3)nn2)c1	-4	99	101	-4
CC(C)Cn1c(NC(=O)NC(C)(C)C)c2ccccc2nc1=O	140	103	107	-13
CC1CC(O)(CC(O)(c2ccccc2)c2ccccc2)C(C)CN1C (configuration not stated)	/	98	92	-9
c1ccc(CNC2CC2)nc1	-5	104	105	-26
Cc1ccc(Sc2ncccc2NC(=O)c2cccc3ccccc23)cc1	0	104	106	-51
CC1=C(C(=O)Nc2ccccc2)C(c2ccccc2)NC(=O)N1 (configuration not stated)	-4	103	105	1
O=C(C1CCCCC1)N1CCN(c2ncnc3c2cnn3-c2ccccc2)CC1	-2	101	101	18
CN(CC(=O)Nc1ccc2c(c1)OCCO2)S(=O)(=O)/C=C/c1ccccc1	4	97	102	-13
Cc1cccc(N2C(=S)NC3c4cc(Cl)cc(Cl)c4OC2(C)C3C(=O)N(C)C)c1 (configuration not stated)	1	101	105	-6
COc1cccc(/C=N/NC(=O)CSc2nnnn2-c2ccccc2)c1	0	104	103	-22
Cc1c(C(=O)N2CCCC2)c(S(=O)(=O)N2CCc3ccccc32)c(C)n1C	-11	100	102	-1
CCn1cc(C(=O)N2CCN(Cc3ccc4c(c3)OCO4)CC2)c2cc(OC)c(OC)cc2c1=O	17	99	101	-15
CCN1CCN(C(=O)c2ccc(Cn3c(=O)[nH]c4cc(OC)c(OC)cc4c3=O)cc2)CC1	117	100	102	-8
CCC(=O)OCC(=O)Nc1ccc2c(c1)c1ccccc1n2CC	49	108	105	6
COc1ccccc1N1CCN(CCCNS(=O)(=O)c2ccc3c(c2)C(C)(C)C(=O)N3C)CC1	-25	101	102	-8
CCc1ccc(NC(=O)c2sccc2-n2cccc2)cc1	5	101	106	-1
OC1(c2cccc(F)c2)CC2CCC(C1)N2Cc1nnnn1CCc1ccccc1 (configuration not stated)	-7	104	102	-11
CC(/C=C/c1ccco1)=N/NC(=O)Cc1cccs1	14	104	107	-24
c1csc(-c2csc3ncnc(NC4CCCC4)c23)c1	6	98	100	-3
O=C(NN1C(=O)CSC1=S)c1ccc(F)cc1	15	103	108	-50
Cc1c(O)ccc(C(=O)CN2CCN(c3ccc(F)cc3)CC2)c1O	11	103	109	-4
CC1=NC(C(F)(F)F)(C(F)(F)F)N=C(N(C)C)O1	-2	101	105	-3
CC1=C(C(=O)Nc2ccccc2C(=O)N2CCCCC2)SCCO1	19	99	103	-14
CCC(=O)NCCCc1nc2ccccc2n1Cc1ccccc1	-10	102	107	-15
Cc1cc(Cl)ccc1OCC(=O)NC1(C#N)CCCCC1	-7	102	109	-32

Shown field by field: part of the list above.
O=C(C1CCCCC1)N1CCN(c2ncnc3c2cnn3-c2ccccc2)CC1
  Mtb MbtI inh: -2
  Polio RdRp inh: 101
  Polio RdRp inh intensity: 101
  Mtb MenB inh: 18
CN(CC(=O)Nc1ccc2c(c1)OCCO2)S(=O)(=O)/C=C/c1ccccc1
  Mtb MbtI inh: 4
  Polio RdRp inh: 97
  Polio RdRp inh intensity: 102
  Mtb MenB inh: -13

Next section
SMILES	Mtb MbtI inh	Polio RdRp inh	Polio RdRp inh intensity	Mtb MenB inh
COCP(=O)(c1ccccc1)c1ccccc1	4	105	101	-20
CC(C)(C)n1nc2c(c1NC(=O)c1ccc(Cl)cc1)CSC2	-6	104	104	-11
COC(=O)c1cn[nH]c1NC(=S)Nc1ccccc1C	-4	100	102	-14
COc1ccc(CCNC(=O)c2oc3ccc4c(c3c2C)C(O)CC(C)(C)O4)cc1OC (configuration not stated)	-116	104	105	-24
COc1ccc(N2CCN(Cn3cnc4ccccc43)CC2)cc1	-42	99	97	-13
O=C(Nc1ccccc1N1CCCC1)C1COc2ccccc2O1 (configuration not stated)	5	101	101	-9
c1ccc(CCN2CCc3nc(N4CCN(c5ccccc5)CC4)ncc3C2)cc1	20	102	103	-1
CCc1ccccc1NNC(=O)c1cc(C)on1	3	101	100	-4
CCC1=[N+]([O-])C(C)(/C(C)=N\O)N(O)C1(C)C (configuration not stated)	-223	100	104	-16
O=C(O)CCc1cc(=O)[nH]o1	9	102	101	4
Cc1ccc(S(=O)(=O)N2Cc3ccccc3CC2C(=O)Nc2cccc3ccccc23)cc1 (configuration not stated)	3	101	103	2
CN(Cc1ccccc1)C(=O)CC(=O)N(C)Cc1ccccc1	-5	101	109	/
COc1ccc(NC(=O)Cn2c(=O)n(CCc3ccccc3)c(=O)c3cccnc32)cc1	-8	100	103	12
O=C(NCc1cccs1)C(Cc1ccccc1)NS(=O)(=O)c1cccc2nsnc12 (configuration not stated)	-6	103	103	-13
Cc1cc(C)c2oc(-c3cccc(NC(=O)c4ccc(Br)o4)c3C)nc2c1	3	104	104	2
Cc1ccc(CNc2ncnc3c2nc2n3CCCCC2)cc1	-4	98	100	-12
CC(C)(C)NC1CCCCC1NS(=O)(=O)c1ccc(Cl)cc1 (configuration not stated)	-10	102	102	6
COc1ccccc1NC(=O)/C=c1\[nH]c(=O)/c(=C\c2ccc(C#N)cc2)s1	11	101	226	-105
O=C(C[n+]1ccccc1)Nc1ccccc1	-14	104	101	-13
CC1(C)CSC(=NCc2ccccc2)N1	-5	102	101	/
COc1ccc2c(c1)c1ccccc1n2C	43	103	96	-31
CCOC(=O)C1CCCN(Cn2ncn(C)c2=S)C1 (configuration not stated)	-6	107	107	-2
CC(=O)Nc1cc(C(=O)N2CC(C)CC(C)C2)ccc1Sc1ccc(Cl)cc1 (configuration not stated)	1	99	97	-13
COc1ccc(-c2sc(C(=O)O)cc2C)cc1	90	102	102	11
